Assay outcomes: PubChem, National Center for Advancing Translational Sciences (NCATS)
Six1-Eya2 blk = qHTS Assay for Inhibitors of the Six1/Eya2 Interaction; AID 651725, 2012; AlphaScreen GST-Six1/His-Eya2 binding, biochemical; stronger effect = lower value; control for the full effect not named in the record; activity change, % (no concentration beside the values); Homeobox protein SIX1 (Homo sapiens) + Protein phosphatase EYA2 (Homo sapiens), …; 360,000 compounds, 0.56% hits; in the data active = activity change below about -65%; inconclusive = about -30% to -65%; inactive = above about -30%; note: % is set by controls: 0 for no effect and ±100 for the full control effect
Target sequence (O00167 whole entry, looked up): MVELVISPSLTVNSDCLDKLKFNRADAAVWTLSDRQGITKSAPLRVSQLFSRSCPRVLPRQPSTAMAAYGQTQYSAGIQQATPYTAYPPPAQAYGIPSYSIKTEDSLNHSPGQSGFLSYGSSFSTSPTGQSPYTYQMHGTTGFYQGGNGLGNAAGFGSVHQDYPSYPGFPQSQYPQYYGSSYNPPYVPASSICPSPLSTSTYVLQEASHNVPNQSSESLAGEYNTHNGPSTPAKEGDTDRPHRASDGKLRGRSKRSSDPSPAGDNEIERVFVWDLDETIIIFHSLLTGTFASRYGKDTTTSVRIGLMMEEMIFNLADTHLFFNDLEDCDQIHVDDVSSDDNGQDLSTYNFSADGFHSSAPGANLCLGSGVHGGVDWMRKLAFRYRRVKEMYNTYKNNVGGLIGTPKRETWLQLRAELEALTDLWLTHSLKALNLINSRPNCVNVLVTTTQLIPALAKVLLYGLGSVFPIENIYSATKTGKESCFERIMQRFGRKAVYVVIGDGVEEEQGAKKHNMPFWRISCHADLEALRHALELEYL
Target sequence (Q15475 whole entry, looked up): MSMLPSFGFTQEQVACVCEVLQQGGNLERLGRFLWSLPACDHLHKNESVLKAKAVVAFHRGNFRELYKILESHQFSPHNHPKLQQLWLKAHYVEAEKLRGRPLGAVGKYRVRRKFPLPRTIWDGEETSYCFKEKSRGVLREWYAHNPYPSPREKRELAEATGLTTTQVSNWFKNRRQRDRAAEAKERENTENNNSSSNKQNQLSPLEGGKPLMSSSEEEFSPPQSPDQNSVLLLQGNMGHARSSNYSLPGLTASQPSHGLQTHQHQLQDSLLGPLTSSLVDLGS
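AlphaScreen luminescence read after one hour at 37 °C in darkness. Pin-transferred compounds met GST-Six1 and His-Eya2 protein (5X stock 250 nM/500 nM) plus glutathione donor and Ni-chelate acceptor beads (5X, 50 ug/mL).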
gsp antagonist = qHTS for Antagonists of gsp, the Etiologic Mutation Responsible for Fibrous Dysplasia/McCune-Albright Syndrome: qHTS | gsp-mutant cells, cAMP HTRF, 30 min; control for the full effect not named in the record | Potency, µM (top dose mostly 76.9 µM), without a hit: at the top dose activity change, negative = inhibition, actives largely listed as inhibitors | 340,000 compounds, 0.4% hits; active = falling curve of any shape with a large fitted effect; inconclusive = falling curve, mostly with a smaller effect; inactive = flat or rising curve; cell line not stated here;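 note: intracellular cAMP measured with PDE inhibitor Ro 20-1724 present during compound exposure; potency is the fitted concentration of half-maximal effect; % is set by controls: 0 for no effect and ±100 for the full control effect; nearly all actives have a fitted effect of over 65% in size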
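Measurement of cellular cAMP by homogeneous time-resolved fluorescence following a 30 min compound exposure at 37C. The PDE inhibitor […] was present throughout; the assay buffer was DPBS with 0.05% BSA and 0.005% Tween 20.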
gsp ag = qHTS for Agonist of gsp, the Etiologic Mutation Responsible for Fibrous Dysplasia/McCune-Albright Syndrome: qHTS | gsp mutant cells, cAMP HTRF, 30 min; control for the full effect not named in the record | Potency, µM (top dose mostly 76.9 µM), inactives show at the highest dose activation (cAMP increase), actives largely listed as activators | 340,000 compounds, 0.13% hits | AID 624287, 2012; active = well fitted activation curve with a large enough effect; inconclusive = small, poorly fitted or top-dose-only effect, or another doubt; inactive = no such curve, though single readings can be large or run the other way; cell line not stated here;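 note: phosphodiesterase inhibitor Ro 20-1724 added with compounds to block cAMP breakdown; potency is the fitted concentration of half-maximal effect; nearly all actives have a fitted effect of over 60% in size; about a fifth of the inactives were tested at one dose only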
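Cells stably selected in G418 were plated at 2000/well, grown 16-24 hr, then given compounds in DMSO with the PDE inhibitor […] (300 uM solution added) for 30 min at 37C; cAMP was read by HTRF.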
CtBP-E1A inh = qHTS Assay for Inhibitors of the CtBP/E1A Interaction; activity change, % (no concentration beside the values); AID 651724, 2012; 340,000 compounds, 0.49% hits; AlphaScreen GST-E1A/His-CtBP binding, 1536-well; stronger effect = lower value; control for the full effect not named in the record; CtBP / adenovirus E1A interaction (AlphaScreen); in the data active means activity change below about -65%; inconclusive means about -30% to -65%; inactive means above about -30%; note: % is set by controls: 0 for no effect and ±100 for the full control effect
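Homogeneous bead-based format: GST-tagged E1A captured on glutathione donor beads, His-tagged CtBP on nickel acceptor beads; compounds precede bead addition by 2 h at 37 °C.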
D2 potentiator = Beta-Arrestin HTS for Positive Allosteric Modulators of the Human D2 Dopamine Receptor: Potentiators. DiscoveRx D2 beta-arrestin cells, luminescence, 90 min; 100% = 57 uM dopamine signal. AID 624464, 2012. D(2) dopamine receptor (Homo sapiens), P14416. 360,000 compounds, 0.23% hits. potentiation, % (test concentration not listed); active = potentiation of 50% or more; inconclusive = 30% to 50%; inactive = 30% or less;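 note: compound concentration not given in the record; tested on top of an EC20 dose of dopamine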
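PathHunter D2 cells, attached overnight at 37 deg C, received compound in DMSO plus dopamine at EC20 (50 nM final) for 90 min at 37 deg C. Beta-arrestin recruitment was read as luminescence after 1 h with detection reagent at ambient temperature.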
D2 ag = Beta-Arrestin HTS for Positive Allosteric Modulators of the Human D2 Dopamine Receptor: Agonists; D(2) dopamine receptor (Homo sapiens), P14416; DiscoveRx PathHunter D2 beta-arrestin, luminescence, 90 min; 100% = 57 uM dopamine signal; activation, % (concentration not given with the values); 360,000 compounds, 0.084% hits; AID 624465, 2012; in the data active = activation above about 40%; inconclusive = about 15% to 40%; inactive = below about 15%; note: the text of the record calls up to 30% inactive
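Agonist mode: compounds alone added to overnight-plated D2 PathHunter cells for 90 min at 37 C, with 57 uM final dopamine (EC100) defining full response. Beta-arrestin recruitment detected by chemiluminescent reagent, read after 1 h at ambient temperature.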
Starred values were filed as active, the others as inactive; ? = inconclusive; / = not tested or not shown; [ ] = another dose, or the depositor's remark.

The line under a structure holds: Six1-Eya2 blk | gsp antagonist | gsp ag | CtBP-E1A inh | D2 potentiator | D2 ag
> CC1CCN(CCc2nc3cc(NS(=O)(=O)c4ccc(F)cc4)ccc3n2C)CC1
    7 | 17% | -16% | 6 | -40 | -0.5
> CCOC(=O)c1cnc(-n2nc(C)cc2C)nc1NC
    -21 | -17% | -32%[inhibitor] | ? | -9 | -2.0
> Cc1cc(C)n(CC(C)NC(=O)c2cc(COc3ccc(F)c(F)c3)on2)n1 (stereo not drawn)
    -5 | -2% | -18% | / | -3 | 3.6
> CNc1nc(Cl)nc2ncn(C)c12
    -6 | 11% | 11%[15.4 µM] | 0 | -18 | -3.0
> Cc1cccc(C(=O)OCC(=O)N2CCCCCC2)c1O
    5 | -6% | -70%[inhibitor] | -5 | -2 | 0.5
> COc1ccc(CNC(=O)c2cnc3cc(C)ccn3c2=O)cc1
    -2 | 3% | -7% | 6 | -5 | -4.5
> COc1ccc(NS(=O)(=O)c2ccc(NC(=S)NC(=O)c3ccc(F)cc3)cc2)nn1
    4 | -23% | 24%[15.4 µM] | 10 | -3 | -4.3
> CC1CCN(CC(=O)Nc2ccccc2C#N)CC1
    -10 | -8% | 20% | 0 | -28 | -3.0
> Cc1nonc1NC(=O)c1oc2ccccc2c1C
    3 | -4% | -16% | 10 | -8 | -2.0
> CCOc1ccc(OCCC(=O)N(CC)CC(=O)Nc2ccccc2OC)cc1
    10 | -8% | -1%[15.4 µM] | 25 | 4 | -0.2
> C=CCCC(=O)Nc1ccc(COC(=O)N2CCOCC2)cc1
    1 | 1% | -27% | 11 | 4 | -0.6
> O=C(CSc1ncccc1C(=O)O)c1ccccc1
    2 | -2% | -30%[inhibitor] | 7 | -10 | -0.5
> CC(/C=N/NC(=O)CSc1nnc(SCc2ccccc2)s1)=C\c1ccco1
    -26 | 1% | -14% | -9 | -8 | 2.9
> O=C(NCc1ccccc1Cl)C1CCCN1C(=O)Nc1ccccc1 (stereo not drawn)
    -8 | 9% | -3% | 8 | -16 | -6.1
> C=CCn1c(Cc2cccs2)nnc1SCC(=O)Nc1ccc(C(=O)OCC)cc1
    -5 | -12% | -23% | 1 | -5 | -2.4
> O=C(NCc1ccc2c(c1)OCO2)c1cc(-c2ccccc2)nn1CC1CC(c2cccnc2)=NO1 (stereo not drawn)
    -4 | -22% | 4% | 4 | -10 | -1.5
> CCN(CC)CCCNC(=S)N(CCCO)Cc1cc2cc3c(cc2[nH]c1=O)OCO3
    -1 | 6% | -4% | -9 | -6 | -6.9
> Cc1cc2ncn(-c3ncnc4scc(-c5ccccc5)c34)c2cc1C
    -7 | -24% | -6% | -6 | -4 | -2.2
> CCN(CCNC(=O)C1CC(=O)N(CCc2ccccc2)C1)c1ccccc1 (stereo not drawn)
    4 | -9% | 9% | -4 | -14 | -2.2
> O=C(c1cc(-c2cccs2)nc2ccccc12)N1CCN(c2ccccc2O)CC1
    -7 | -23% | ? | -11 | 10 | 5.5
> COC(=O)c1cc(Oc2ccc(S(=O)(=O)N3CCOCC3)cc2[N+](=O)[O-])cc(C(=O)OC)c1
    31 | -26% | -34%[inhibitor] | 0 | 0 | ?
> CCN1CCN(C(C(=O)NC2CCCCC2)c2cc3ccccc3o2)CC1 (stereo not drawn)
    12 | / | / | 1 | -15 | -4.8
> O=C(COC(=O)c1ccccc1C(=O)c1ccccc1)NCCc1ccc(Cl)cc1Cl
    0 | ? | 0%[15.4 µM] | -28 | -5 | 4.1
> CCn1c(Cn2nnc(-c3ccccc3)n2)nnc1SCC(=O)Nc1cccc(C(C)=O)c1
    -1 | -36% | -32%[inhibitor] | 10 | 5 | 1.2
> COc1ccc(OC)c(NC2c3ccccc3C(=O)N2Cc2ccc3c(c2)OCO3)c1 (stereo not drawn)
    ? | -13% | -60%[inhibitor] | ? | -1 | 0.4
> CCN(CC)C(=O)c1cccc(-c2csc(C(NC(C)=O)c3ccc(F)c(F)c3)n2)c1 (stereo not drawn)
    0 | / | / | 1 | 2 | 2.4
> CNC(=O)C1CC(=O)N(c2ccc(OCC(=O)Nc3ccc(OC)cc3)cc2)C1 (stereo not drawn)
    25 | 0% | -2% | / | 1 | -0.2
> COc1ccc(Br)c(-c2nc(CS(=O)(=O)c3ccc(F)cc3)no2)c1
    4 | 4% | 0% | -6 | -11 | -4.8
> c1ccc(N2CCN(c3cnccn3)CC2)nc1
    -3 | 7% | ? | -5 | -11 | -2.4
> Cc1ccc(NC(=O)CN(C)C(=O)c2ccc(S(=O)(=O)N(C)c3ccccc3)cc2)cc1
    -1 | -7% | 11% | 0 | -1 | -0.2

Ordered by number of heavy atoms (rising): part of the list above
The line under a structure holds: Six1-Eya2 blk | gsp antagonist | gsp ag | CtBP-E1A inh | D2 potentiator | D2 ag
> O=C(CSc1ncccc1C(=O)O)c1ccccc1
    2 | -2% | -30%[inhibitor] | 7 | -10 | -0.5
> CCOC(=O)c1cnc(-n2nc(C)cc2C)nc1NC
    -21 | -17% | -32%[inhibitor] | ? | -9 | -2.0
> CCn1c(Cn2nnc(-c3ccccc3)n2)nnc1SCC(=O)Nc1cccc(C(C)=O)c1
    -1 | -36% | -32%[inhibitor] | 10 | 5 | 1.2

Other structures follow.
The line under a structure holds: Six1-Eya2 blk | gsp antagonist | gsp ag | CtBP-E1A inh | D2 potentiator | D2 ag
> COc1ccc(CNC(=O)[C@H](C)N2C(=O)N3CCc4c([nH]c5ccccc45)[C@@]3(C)C2=O)cc1OC
    -6 | -9% | / | -6 | -43 | 7.5
> COC(=O)c1c(NC(=O)CN2C(=O)NC3(CCC(C(C)(C)C)CC3)C2=O)sc2c1CCCCC2 (stereo not drawn)
    -4 | 2% | 2%[15.4 µM] | 8 | -11 | -2.4
> Cc1cc(NC(=O)CSc2ncc(CO)n2Cc2ccc(F)cc2)no1
    -1 | 0% | 3% | 2 | -5 | 0.4
> CN(C(=O)COC(=O)C12CC3CC(CC(Cl)(C3)C1)C2)C1(C#N)CCCCC1
    -4 | -7% | -57%[inhibitor] | / | 0 | -2.4
> O=C(Nc1ccccc1N1CCOCC1)c1ccc(S(=O)(=O)NCc2ccco2)cc1
    6 | -8% | -10%[15.4 µM] | -2 | -1 | -2.0
> COc1ccc(C2C(C(=O)Nc3cccnc3)=C(C)Nc3nc(-c4ccco4)nn32)cc1 (stereo not drawn)
    -3 | -2% | 6% | -2 | -2 | 1.8
> O=C(NCCOC12CC3CC(CC(C3)C1)C2)c1cccc(Br)c1
    10 | -24% | 1% | -10 | -10 | -2.0
> O=C(NCc1ccc(F)cc1)C1CCCN(S(=O)(=O)c2cccc3nonc23)C1 (stereo not drawn)
    5 | 1% | 4% | 3 | -11 | 1.8
> Cc1ccc2c(c1)C1CN(C)CCC1N2S(=O)(=O)c1cccc(C(F)(F)F)c1 (stereo not drawn)
    -11 | 8% | 3% | / | -20 | -4.4
> Cc1ccc(-c2ccc(CCC(=O)O)n2CC(=O)O)cc1
    0 | 4% | -66%[inhibitor] | 9 | 1 | 0.3
> CCOC(=O)c1sc2ncn(C(CC)C(=O)OC)c(=O)c2c1C (stereo not drawn)
    4 | -14% | -26% | 0 | 0 | 3.3
> COc1ccc(OC)c(NC(=O)COC(=O)/C=C/c2c(C)nn(C3CCS(=O)(=O)C3)c2Cl)c1 (stereo not drawn)
    -5 | -14% | 0% | -9 | 7 | -1.2
> COc1ccc(C)cc1S(=O)(=O)N1CCN(S(=O)(=O)c2cc(C(=O)O)ccc2C)CC1
    13 | 2% | 2% | 2 | -1 | -0.6
> C=CCn1c(SCC(=O)Nc2cccnc2Cl)nnc1-c1ccccc1F
    3 | 1% | 6% | -1 | -16 | 1.8
> O=C(N1CCCC1)n1c(Cc2ccccc2)nc2ccccc21
    3 | -20% | -25% | -8 | -7 | -0.9
> COc1cc(Cl)ccc1NC(=S)N(CCCN1CCOCC1)Cc1cn(C)c2ccccc12
    -18 | -5% | -6%[15.4 µM] | -11 | -16 | -2.4
> C=CCn1c(SCC(=O)Nc2ccc3c(c2)OCO3)nnc1-c1ccccc1O
    -2 | -13% | -13% | -12 | -4 | -1.7
> CC1(c2ccc3noc(-c4ccc(Cl)cc4)c3c2)OCCO1
    13 | -14% | -7% | -1 | 18 | ?
> COc1cc(NC(=O)c2ccc(-c3ccnn3C)c3ccoc23)cc(OC)c1OC
    1 | / | / | 2 | -15 | 2.1
> CC(=O)N(CCN(C(C)=O)c1ccccc1)c1ccccc1
    -7 | 2% | 0% | -8 | 12 | -2.4
> CCc1cc2c(NCC(=O)O)ncnc2s1
    10 | -1% | -1% | -2 | 6 | -1.5
> COCCn1c(SCC(=O)Nc2cccc(S(N)(=O)=O)c2)nc2ccccc21
    -1 | -2% | 2% | 2 | -6 | 2.6
> COc1ccc(C(=O)OC(C(=O)c2ccccc2)c2ccccc2)cc1 (stereo not drawn)
    10 | -13% | -4% | 18 | -14 | -3.6
> COc1ccccc1-n1c(SCC(=O)Nc2cccc(C)c2)nc2c(c1=O)SCC2
    -16 | -3% | -51%[inhibitor] | -7 | -2 | 0.3

A different layout for part of the listing above:
| Six1-Eya2 blk | gsp antagonist | gsp ag | CtBP-E1A inh | D2 potentiator | D2 ag | structure |
| --- | --- | --- | --- | --- | --- | --- |
| -18 | -5% | -6%[15.4 µM] | -11 | -16 | -2.4 | COc1cc(Cl)ccc1NC(=S)N(CCCN1CCOCC1)Cc1cn(C)c2ccccc12 |
| -2 | -13% | -13% | -12 | -4 | -1.7 | C=CCn1c(SCC(=O)Nc2ccc3c(c2)OCO3)nnc1-c1ccccc1O |
| 13 | -14% | -7% | -1 | 18 | ? | CC1(c2ccc3noc(-c4ccc(Cl)cc4)c3c2)OCCO1 |
| 1 | / | / | 2 | -15 | 2.1 | COc1cc(NC(=O)c2ccc(-c3ccnn3C)c3ccoc23)cc(OC)c1OC |
| -7 | 2% | 0% | -8 | 12 | -2.4 | CC(=O)N(CCN(C(C)=O)c1ccccc1)c1ccccc1 |
| 10 | -1% | -1% | -2 | 6 | -1.5 | CCc1cc2c(NCC(=O)O)ncnc2s1 |
| -1 | -2% | 2% | 2 | -6 | 2.6 | COCCn1c(SCC(=O)Nc2cccc(S(N)(=O)=O)c2)nc2ccccc21 |
| 10 | -13% | -4% | 18 | -14 | -3.6 | COc1ccc(C(=O)OC(C(=O)c2ccccc2)c2ccccc2)cc1 (stereo not drawn) |
| -16 | -3% | -51%[inhibitor] | -7 | -2 | 0.3 | COc1ccccc1-n1c(SCC(=O)Nc2cccc(C)c2)nc2c(c1=O)SCC2 |
